# GLA inh pH 4.5: alpha-galactosidase A (human) inhibition, pH 4.5; purified enzyme, 4-MU-alpha-Gal fluorescence, pH 4.5; activity change, negative = inhibition, % at 105 µM; 230,000 tested, under 10 active; inconclusive = small, poorly fitted or top-dose-only inhibition, or a rising curve; inactive = flat fitted curve, though single readings scatter; no compound was filed as active;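 also: 0% = full activity with enzyme and -100% = basal without enzyme; dose as in the result columns while the protocol names 77 µM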
# Rango release inh: prevents RanGTP from dissociating the Rango-importin beta complex; O95149+P62826; Biochemical FRET Rango-importin beta, RanGTP-induced dissociation; Potency, µM (titrated, usually from 46.1 µM), inactives show top-dose activity change, negative = inhibition; 340,000 tested, 0.071% active; AID 540253; active means falling FRET ratio curve, often poorly fitted, with flat reads before Ran was added; inconclusive means other falling curves, or compound fluorescence or quenching; inactive means flat or rising ratio curve;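 also: potency is read from the fitted curve at half-maximal effect; % of control where 0% means no effect; nearly all actives have a fitted effect of over 45% in size; -100% = wells without RanGTP and RCC1; the record marks most hits as doubtful in a second field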
#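 Recombinant Rango FRET biosensor (EYFP–snurportin 1 IBB–cerulean CFP10) at 0.1 uM premixed with 0.25 uM importin beta in PBS, 1 mM DTT, 0.02% Tween-20, 0.1% BSA. Compound added 5 min; RanGTP-RCC1 (0.6 uM Ran, 2 mM GTP, 0.2 uM RCC1) then triggers release, read at 45 min.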
# miR-21 FLuc: raises the signal of a miR-21 reporter; HeLa miR-21 FLuc reporter, luciferase, 48 h; Potency, µM (top dose mostly 38.3 µM), without a hit: at the top dose reporter change, positive = more light; 340,000 tested, under 10 active; active = well fitted rising curve with a large enough effect; inconclusive = small, poorly fitted or top-dose-only effect; inactive = no such curve, though single readings can be large or run the other way;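 also: % of control where 0% means no effect; miR-21 action dims this reporter so a rising signal means less miR-21 action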
#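 HeLa cells stably expressing CMV-driven firefly luciferase with a downstream miR-21 binding sequence, endogenously expressing miR-21, were treated with titrations (up to about 40uM final) for 48 hours at 37 degree Celsius. Luciferase luminescence was read after lysis.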
# Rango-impB inh: Rango-importin beta binding inhibition; Q14974; Rango CFP/YFP FRET sensor + importin beta, 45 min; Potency, µM (series often up to 92.2 µM), inactives show top-dose inhibition of complex formation; 340,000 tested, 0.031% active; active = rising FRET ratio curve, often small or poorly fitted; inconclusive = mostly compound fluorescence or quenching in the first reads; inactive = flat curves in all reads;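 also: potency is read from the fitted curve at half-maximal effect; 0% = DMSO wells and 100% = buffer wells lacking importin beta; nearly all actives have a fitted effect of over 15% in size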
# Target sequence (Q14974 whole entry, looked up): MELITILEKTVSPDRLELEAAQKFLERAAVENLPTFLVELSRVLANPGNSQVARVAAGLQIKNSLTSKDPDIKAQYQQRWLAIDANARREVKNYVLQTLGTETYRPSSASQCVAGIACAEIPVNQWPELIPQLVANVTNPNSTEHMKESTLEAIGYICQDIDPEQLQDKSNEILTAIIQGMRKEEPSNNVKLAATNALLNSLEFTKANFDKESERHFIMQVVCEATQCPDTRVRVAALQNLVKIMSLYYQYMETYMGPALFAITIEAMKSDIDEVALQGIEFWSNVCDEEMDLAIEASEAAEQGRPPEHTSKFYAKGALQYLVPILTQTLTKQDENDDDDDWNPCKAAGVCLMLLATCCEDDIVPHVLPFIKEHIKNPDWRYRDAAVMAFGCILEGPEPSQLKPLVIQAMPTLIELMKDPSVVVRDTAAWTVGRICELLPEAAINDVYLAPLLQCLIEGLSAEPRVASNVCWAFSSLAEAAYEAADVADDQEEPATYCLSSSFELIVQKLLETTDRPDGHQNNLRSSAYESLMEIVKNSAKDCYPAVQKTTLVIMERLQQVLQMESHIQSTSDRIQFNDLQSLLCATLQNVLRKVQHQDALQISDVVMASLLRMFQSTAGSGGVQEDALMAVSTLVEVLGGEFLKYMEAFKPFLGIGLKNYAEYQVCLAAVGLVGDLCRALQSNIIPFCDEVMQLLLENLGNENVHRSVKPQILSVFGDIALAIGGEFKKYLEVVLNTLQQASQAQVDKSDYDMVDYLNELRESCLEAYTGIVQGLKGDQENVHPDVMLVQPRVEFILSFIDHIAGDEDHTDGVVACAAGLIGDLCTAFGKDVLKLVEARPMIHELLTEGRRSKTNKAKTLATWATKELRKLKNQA
#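 Inhibition scored from the CFP 486 nm/YFP 530 nm FRET ratio 45 min after adding 0.125 microM importin beta to 50 nM Rango biosensor preincubated 5 min with compound (room temperature, PBS with DTT, Tween-20, BSA). No-importin wells as positive control.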
# The depositor's hits bear a star; ? = inconclusive; . = no result given; & = joins results of further samples. An excerpt; the hit share may differ from the screen's.
compound	GLA inh pH 4.5	Rango release inh	miR-21 FLuc	Rango-impB inh
COc1cc2c(cc1OC)C(c1ccc(C)cc1)NC(=O)C2 (stereo unspecified)	.	7.4%	-10.2%	0.6%
Cc1cc(C)c(S(=O)(=O)NCC23C=CC(O2)C2C(=O)N(c4ccccc4)C(=O)C23)c(C)c1 (stereo unspecified)	10.6	30.8%	0.9%	1.6%
Cc1noc(/C=C/N(C)C)c1S(=O)(=O)N1CCCC(C(=O)Nc2ccccc2F)C1 (stereo unspecified)	.	-29.3%	0.6%	?
CC1(C)NC(=O)N(CCCSc2ccc(Cl)cc2)C1=O	1.0	-6.0%	-18.5%	1.7%
CC(C)c1ccc(CN2CCN(C(=O)CSc3nnnn3C3CC3)CC2)cc1	.	0.0%	.	0.7%
Cc1cc(Br)c(NC(=O)C(C)Sc2nnnn2C)c(Br)c1 (stereo unspecified)	.	-3.7%	.	6.0%
CN1CCc2cc3c(c4c2C1CC41CCC(=NO)CC1)OCO3 (stereo unspecified)	7.3	-5.5%	-5.5%	1.9%
Cc1cccc(/C=C2\Sc3ccc(C(=O)N4CCCCC4)cc3N(C)C2=O)c1	.	1.0%	21.6%	0.3%
Cc1cnc(NC(=O)c2ccc(-c3nc4ccccc4s3)o2)s1	5.4	-2.3%	-20.7%	-2.3%
Cc1ccc(N(CC(=O)NC2CCCC2)C(=O)CNC(=O)c2cccs2)cc1C	.	0.0%	1.6%	4.1%
Cc1ccc2[nH]c(=O)c(COC(=O)c3ccccn3)cc2c1	1.3	1.0%	-3.3%	0.9%
Cc1cc(Cn2nnc3ccccc32)c(O)c(C(C)(C)C)c1	.	9.5%	.	3.2%
O=C1OCCN1C(=O)[C@H]1[C@H](c2ccc(F)cc2)C(c2cccc(Cl)c2)=NN1c1ccc(Br)cc1	?	?	.	?
Cc1cc2sc(NC(=O)c3ccco3)nc2cc1Cl	.	3.8%	-59.6%	6.7%
CCOC(=O)c1c(NC(=O)c2cccs2)sc(C)c1C	1.0	5.0%	0.9%	2.5%
Cc1ccc(C(C)C)cc1OCCN1CCCC1	0.7	-10.4%	-7.3%	1.8%
CCN(c1ccccc1)S(=O)(=O)c1cccc(C(=O)OCc2nc3sc(C)c(C)c3c(=O)[nH]2)c1	-7.7	-4.7%	-8.9%	?
CCCC(=O)Nc1ccc(NC(=S)NC(=O)c2cccs2)cc1	4.9	-1.1%	-27.2%	-2.7%
CCc1c(C)nc(N2CCN(c3ccc(OC)cc3)CC2)[nH]c1=O	.	-12.3%	1.0%	1.3%
Cc1ccc2c(c1)-c1cc(C)nn1C(c1ccc3c(c1)OCO3)N2 (stereo unspecified)	-8.9	-9.2%	-25.3%	2.2%
COc1ccccc1NC(=O)c1ccc(NC(=O)COC(=O)c2cncc(Br)c2)cc1	.	-5.1%	.	3.0%
CCOC(=O)c1c(C)[nH]c(N=Nc2cc(C(=O)O)cc(C(=O)O)c2)c1C	4.4	2.1%	-0.3%	2.1%
CSc1nc2ncc3c(n2n1)CC(C)(C)CC3=O	1.6	-7.0%	5.0%	2.3%
NC(=O)c1ccc(-n2nnnc2SCC(=O)c2ccc(O)c(O)c2)cc1	-2.1	?	-7.4%	4.2%
CCOc1ccc(CCNC(=O)CN2C(=O)NC3(CCc4ccccc43)C2=O)cc1OCC (stereo unspecified)	.	5.9%	.	-1.9%
OCCC1CN(Cc2cccn2-c2cccnc2)CCN1CCc1ccccc1 (stereo unspecified)	0.9	2.7%	-1.4%	0.1%
CCCCNC(=S)NNC(=O)c1ccncc1	1.6	-10.7%	0.2%	1.1%
Cc1ccc(S(=O)(=O)NCC(=O)NCC(=O)NC(C)c2ccccc2Br)cc1C (stereo unspecified)	.	2.0%	11.3%	0.0%
Cc1ccc(C(C(=O)NC(C)(C)C)N(Cc2cccs2)C(=O)c2ccc3c(c2)OCCO3)cc1 (stereo unspecified)	?	-8.4%	-0.7%	?
O=S(=O)(NCC(c1ccccc1)N1CCC(O)CC1)c1ccc(Cl)cc1 (stereo unspecified)	.	7.5%	1.2%	-3.9%
Cc1ccccc1-n1nc2c(c1NC(=O)/C=C\c1ccc3c(c1)OCO3)CSC2	-9.9	0.3%	-6.7%	-0.1%
Cc1ccc(Cc2c(C)[nH]c(=S)[nH]c2=O)cc1	1.3	1.8%	-3.7%	3.5%
Cc1cccc(NC(=S)NN2CCN(C)CC2)c1	7.7	-13.1%	-15.3%	-6.3%
N#Cc1c(NC(=O)CSc2ncnc3sccc23)oc(-c2ccco2)c1-c1ccco1	0.9	?	3.9%	?
N[C@@H](CO)c1nnc([C@H](CCC(=O)O)NC(=O)C2CCNCC2)o1	6.2	-0.2%	0.5%	3.0%
Cc1nc(C)c(C(=O)N/N=C/c2ccco2)s1	-3.7	0.0%	-0.3%	-0.5%
Cc1ccc(C2N(c3nccs3)C(=O)C3CCCN32)cc1 (stereo unspecified)	4.5	15.8%	-6.3%	-1.2%
COc1ccc(CC(=O)Nc2nc(C)cs2)cc1	-1.4	-15.7%	-22.2%	5.3%
C/C(=N\N1CCN(c2ccccc2)CC1)c1ccco1	1.3	-9.8%	-17.8%	-0.8%
Cc1ccc(NC(=O)C[n+]2cc(-c3ccccc3)n3c2CCC3)c(C)c1	-2.6	-0.6%	-0.7%	-1.0%
COc1ccc(CCNC(=O)c2cc(S(=O)(=O)N3CCOCC3)cn2C)cc1OC	.	19.8%	-1.0%	1.7%
CCCCN1C(=O)/C(=C(/C#N)C(=O)N2CCCC2)c2ccccc21	-1.1	26.6%	-5.4%	-3.1%
O=C(COC(=O)c1ccco1)Nc1nc2ccc([N+](=O)[O-])cc2s1	-6.2	-27.0%	-0.2%	?
Cc1ccccc1CN1C(=O)c2ccccc2Sc2ccc(C(=O)NCCCN3CCOCC3)cc21	.	-0.3%	17.2%&9.1%	0.4%
Cc1ccc(S(=O)(=O)c2nc(-c3ccco3)oc2SCC(N)=O)cc1	.	-9.4%	-0.3%	2.0%
N#C/C(=C\c1ccc(F)c(F)c1)C(=O)NC1CCCCC1	-5.7	-10.4%	-0.7%	3.5%
CC(CCc1ccccc1)NC(=O)CNC(=O)N1CC(=O)Nc2ccccc21 (stereo unspecified)	.	-6.3%	-0.4%	-1.2%
COCCn1c(SCC(=O)NNC(=O)c2ccccc2)nc2ccccc2c1=O	-23.1	9.2%	-2.7%	-3.7%
COc1ccnc(N2CCN(c3cccc(C(F)(F)F)c3)CC2)c1C#N	-15.4	26.9%	-4.4%	-2.0%
O=C(CP(=O)(c1ccccc1)c1ccccc1)Nn1cnnc1	2.8	-5.6%	-2.9%	2.0%
CN1C(=S)SC(C)(C)C1NO (stereo unspecified)	0.6	-2.1%	2.8%	1.3%
CCOc1ccc(N(C(C)C(=O)NN=C2CCCCCCC2)S(C)(=O)=O)cc1 (stereo unspecified)	-4.2	-9.0%	-2.5%	-1.2%
CCN(CC)c1ccc(S(=O)(=O)N2CCOCC2)cc1NC(=O)CN1CCN(Cc2ccccc2)CC1	-2.2	1.4%	10.4%	-4.4%
COc1cc(Cl)c(C)cc1NC(=O)CSc1nnc(CCC(=O)O)c(=O)[nH]1	-5.0	12.2%	1.7%	-4.4%
COC(=O)c1cc(Cl)c(NC(=O)c2cc(OC)c(OC)c(OC)c2)cc1OC	3.8	0.0%	-1.9%	-0.5%
COC(=O)COc1ccc2occ(C(C)=O)c2c1	-13.6	-14.2%	1.8%	-1.4%
CCN(CC)S(=O)(=O)c1ccc2c(c1)nc(SCc1nc3ccsc3c(=O)[nH]1)n2CC	2.6	?	5.0%	?
COc1cc2c(=O)n(Cc3ccco3)c(=O)n(CC(=O)c3cccc(Br)c3)c2cc1OC	17.3	-5.3%	4.3%	6.8%
COc1ccc(N2CC(C(=O)N/N=C/c3ccccc3)CC2=O)cc1 (stereo unspecified)	7.8	6.0%	-3.0%	1.0%
CC(C)Oc1ccc(C(=O)Nc2ccc3c(c2)n(C)c(=O)n3C)cc1	.	-4.0%	-12.6%	-0.8%

# Whole records from above:
# COc1cc(Cl)c(C)cc1NC(=O)CSc1nnc(CCC(=O)O)c(=O)[nH]1 is listed with GLA inh pH 4.5 = -5.0; Rango release inh = 12.2%; miR-21 FLuc = 1.7%; Rango-impB inh = -4.4%
# CCCCN1C(=O)/C(=C(/C#N)C(=O)N2CCCC2)c2ccccc21 is listed with GLA inh pH 4.5 = -1.1; Rango release inh = 26.6%; miR-21 FLuc = -5.4%; Rango-impB inh = -3.1%

# The listing continues:
compound	GLA inh pH 4.5	Rango release inh	miR-21 FLuc	Rango-impB inh
CCCCNC(=O)COC(=O)c1ccc(NC(C)=O)cc1	-18.0	10.4%	-0.1%	-0.2%
CN1/C(=C\C(=O)CN2C(=O)NC3(CCCCCC3)C2=O)C(C)(C)c2ccccc21	-1.5	8.6%	27.8%	2.4%
COc1ccc(CC(=O)OCC(=O)NCc2ccccc2Cl)cc1OC	2.2	-7.7%	-0.1%	1.0%
CN(C)c1ccc(O)c2c1CC1CC3[C@@H](N(C)C)C(=O)C(C(N)=O)C(=O)[C@]3(O)C(=O)C1C2=O (stereo partly specified)	.	-6.8%	.	3.2%
Cn1c(SCC(=O)c2ccccc2)ncc(C(=O)Nc2ccc(F)cc2)c1=O	.	15.4%	.	-0.6%
CC(C)C(C)(C#N)NC(=O)CSc1nncn1-c1ccccc1 (stereo unspecified)	5.9	1.7%	1.4%	5.4%
Cc1oc(-c2ccccc2F)nc1CN1CCC(C(=O)NCc2cccs2)CC1	-10.2	-0.1%	-6.2%	0.7%
O=C(COc1nc2ccccc2nc1N1CCOCC1)NCC(F)(F)F	-1.3	4.5%	-2.5%	-0.4%
O=C(COC(=O)c1ccc(S(=O)(=O)NCc2ccco2)cc1)Nc1ccccc1OC(F)F	4.2	7.9%	2.7%	2.8%
CCOc1ccccc1N/C=C(\C#N)c1nc2ccccc2n1C	4.5	?	1.4%	-0.1%
O=S1(=O)CC(O)C(N2CCC(c3ccccc3)CC2)C1 (stereo unspecified)	4.6	-1.1%	-4.6%	-0.3%
CNCCC(Oc1ccccc1OC)c1ccccc1 (stereo unspecified)	2.6	35.3%	.	1.2%
CC1(C)C2CC[C@]3(C)C(CC=C4[C@@H]5C[C@@](C)(CO)[C@@H]6C[C@@]5(CC[C@]43C)C(=O)O6)[C@@]2(C)CC[C@@H]1O (stereo partly specified)	.	1.7%	.	-0.3%
Cc1cccc(NC(=O)c2sc3nc(N4CCOCC4)c4c(c3c2N)CCCC4)c1	.	8.1%	-16.9%	-4.1%
O=C(NC(=S)Nc1ccc(S(=O)(=O)Nc2nccs2)cc1)c1ccccc1	2.4	7.5%	-15.5%	0.9%
CCOc1ccc2c(c1)nc(SCC(=O)c1cccs1)n2C	4.1	23.6%	-41.5%	-0.7%
C=CCn1c(=O)c2ccccc2n2c(SCc3nnc(-c4ccccc4Br)o3)nnc12	-2.3	13.7%	-4.0%	-2.8%
O=C(COc1ccc(S(=O)(=O)NCc2ccccc2)cc1Cl)NCc1ccncc1	.	-15.8%	10.3%	-3.5%
CCOCCCNC(=O)c1cn(CC)c2ccc(S(=O)(=O)N3CCOCC3)cc2c1=O	.	-8.8%	0.5%&-7.7%	-0.2%
C/C(=N\Nc1cc(N2CCCCC2)nc(C)n1)c1ccc(Br)cc1	.	7.0%	1.4%	1.0%
CCc1cccc2c(-c3csc(=NC)n3C)c[nH]c12	-18.8	-7.9%	-7.1%	3.4%
CCCN(CCC)S(=O)(=O)c1ccc(NS(C)(=O)=O)cc1	1.1	-2.8%	-3.8%	0.5%
NCCCC[C@H](N)c1nnc([C@H](CC(=O)O)NC(=O)C2CCNCC2)o1	4.0	24.6%	-0.8%	1.3%

# Screening data as filed in PubChem BioAssay.
